# High-throughput results (PubChem)
# VDR inhibitor – vitamin D3 receptor (human) inhibition; P11473; VDR-SRC2-3 peptide fluorescence polarization, 2 h; Potency, µM, without a hit: max response, negative = inhibition, hits mostly inhibitors; actives 0.93% (n = 400,000); active means well fitted inhibition curve with a large enough effect; inconclusive means small, poorly fitted or top-dose-only effect, or another doubt; inactive means no such curve, though single readings can be large or run the other way; further: series mostly up to about 120 µM
# Target sequence (P11473 whole entry, looked up): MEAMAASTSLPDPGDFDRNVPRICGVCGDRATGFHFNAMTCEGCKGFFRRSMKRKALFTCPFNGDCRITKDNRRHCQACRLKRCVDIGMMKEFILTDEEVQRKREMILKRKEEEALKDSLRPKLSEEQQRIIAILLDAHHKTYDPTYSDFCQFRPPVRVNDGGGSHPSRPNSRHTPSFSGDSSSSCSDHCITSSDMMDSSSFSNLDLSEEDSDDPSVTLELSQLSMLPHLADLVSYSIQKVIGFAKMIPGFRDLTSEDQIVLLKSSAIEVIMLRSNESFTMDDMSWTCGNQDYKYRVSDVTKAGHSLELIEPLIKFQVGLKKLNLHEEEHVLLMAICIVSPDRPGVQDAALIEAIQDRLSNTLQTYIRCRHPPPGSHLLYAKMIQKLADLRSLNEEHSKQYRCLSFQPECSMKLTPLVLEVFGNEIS
#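 FP read-out; VDR + SRC2-3 coactivator peptide; 23 nl compound by pintool; 2 h RT incubation; reagents held at 4 deg C, protected from light.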
# Numbers without * were called inactive; u = inconclusive; & = joins results of further samples; [ ] = remark or other dose. On the % scale 0 is the no-effect control and ±100 the full control effect; potency means the concentration at half of the fitted maximal effect.
VDR inhibitor | mol
-12.9% | O=C(NC(=S)N1CCN(C(c2ccccc2)c2ccccc2)CC1)c1ccc(S(=O)(=O)N2CCOCC2)cc1
6.8% | COc1cc2ccccc2cc1C(=O)Nc1nccs1
-4.8% | CC1=C(C(=O)OCc2ccccc2)C(c2ccoc2)C(C#N)=C(N)O1 (stereo not given)
1.6% | O=C(Oc1ccc(OC(=O)N2CCOCC2)cc1)c1ccccc1
-1.3% | CCN(CC(=O)Nc1ccc2c(c1)OCCO2)C(=O)C(C)Oc1ccc(Cl)cc1 (stereo not given)
-15.4% | C#Cc1ccc([C@@H]2C=C(C(=O)OCC=C)O[C@H](OCCCCO)C2)cc1
u | Nc1nc(SCC(=O)c2ccc([N+](=O)[O-])cc2)n[nH]1
-4.3% | CCOc1ccccc1N1CCN(C(=O)c2ccncc2)CC1
-6.7% | Cn1c2c(c(=O)n(C)c1=O)C(c1ccccc1C(F)(F)F)CC(=O)N2 (stereo not given)
-1.9% | O=C(c1ccco1)N1CCC(c2nc3c(nnn3Cc3ccc(F)cc3)c(=O)[nH]2)CC1

# The list goes on (two carried over from the part before).
VDR inhibitor | mol
-6.7% | Cn1c2c(c(=O)n(C)c1=O)C(c1ccccc1C(F)(F)F)CC(=O)N2 (stereo not given)
-1.9% | O=C(c1ccco1)N1CCC(c2nc3c(nnn3Cc3ccc(F)cc3)c(=O)[nH]2)CC1
19.2% | O=C(Nc1c(Cl)cccc1Cl)C1CCN(C(=O)c2cccs2)CC1
23.0% | CCc1ccc(C(=O)Nc2ccc(OC)c(S(=O)(=O)N3CCCCC3)c2)cc1
-14.8% | O=c1c2ccccc2sc2c(CO)ccc(NCCN3CCCCC3)c12
-9.1%&-13.9% | Cc1ccc(-c2cccc(-c3cc(=O)oc4ccc(C(C)(C)C)cc34)c2)cc1
3.9% | Cc1ccc(OCCCc2c(C)n[nH]c2C)cc1
17.9% | Cn1cc(Br)cc2nc(C(F)(F)F)nc1-2
6.5% | O=C(Nc1nccs1)c1ccccn1
-11.7% | Cn1c(SCC(=O)Nc2ccccc2F)nnc1-c1ccc(S(=O)(=O)N2CCOCC2)cc1
-13.6% | O=c1cc(-c2ccccc2)[nH]n1-c1nc2ccccc2s1
-3.7% | Cc1nn(C)c(C(=O)NC(=S)Nc2ccccc2Br)c1Cl

# Structures above with fluorine, in the order listed:
VDR inhibitor | mol
-6.7% | Cn1c2c(c(=O)n(C)c1=O)C(c1ccccc1C(F)(F)F)CC(=O)N2 (stereo not given)
-1.9% | O=C(c1ccco1)N1CCC(c2nc3c(nnn3Cc3ccc(F)cc3)c(=O)[nH]2)CC1
17.9% | Cn1cc(Br)cc2nc(C(F)(F)F)nc1-2
-11.7% | Cn1c(SCC(=O)Nc2ccccc2F)nnc1-c1ccc(S(=O)(=O)N2CCOCC2)cc1

# The listing continues:
VDR inhibitor | mol
-19.3% | O=C(c1ccc(CS(=O)(=O)c2cccc(C(F)(F)F)c2)o1)N1CCN(c2ccccn2)CC1
-27.4% | O=C(CN1CCN(S(=O)(=O)c2ccc(C(F)(F)F)cc2)CC1)N1CCNC1=O
-15.8% | O=C(NCc1ccccc1F)C1CCCN1C(=O)Nc1ccc(F)cc1 (stereo not given)
2.2% | CCn1c(CNc2ccc(F)cc2)nnc1SCC(=O)Nc1ccccc1OC
-8.2% | COc1cc2ccccc2cc1C(=O)NCc1ccncc1
2.2% | CCn1c(C(=O)N2CCCC(C(=O)N3CCN(c4cc(C)ccc4C)CC3)C2)cc2sccc21 (stereo not given)
-16.8% | CCO[C@@H]1OC(C(=O)NCc2ccccc2)=C[C@H](c2cn(C(C)=O)c3ccccc23)[C@H]1CCCO
31.8%[activator] | Cc1ccc(-c2nc(N/N=C/c3ccncc3)c3ccccc3n2)cc1
-7.0% | COc1ccc(NC(=S)NCCc2c[nH]c3ccc(OC)cc23)c(OC)c1
-6.1%&14.8% | Cc1ccc(CCNC(=O)CCS(=O)(=O)c2ccc3c(c2)oc(=O)n3C)cc1

# Carrying on.
VDR inhibitor | mol
5.7% | O=C(CSCn1nnc2c(=O)[nH]c(Cc3ccc(F)cc3)nc21)Nc1cccc(C(F)(F)F)c1
u | CCCCn1c(=O)[nH]c(=O)c2c1nc(Cn1ncc(Cl)c(Cl)c1=O)n2CCC
-8.1% | COC(=O)Nc1ccc2ncn(C)c(=O)c2c1
0.1% | COc1cccc(NC(=O)Cn2cnc3c(oc4nc5c(cc43)CCCC5)c2=O)c1
-9.9% | COC(=O)C(C)NC(=O)c1ccc(C(C)(C)C)cc1 (stereo not given)
u | CC(=O)Nc1ccc(NC(=O)CSc2nnc(-c3cccnc3)o2)cc1
3.4% | COc1ccccc1NC(=O)CSc1oc(-c2ccc(F)cc2)nc1S(=O)(=O)c1ccc(Br)cc1
10.3% | Cc1cc2ncn(CCOc3ccccc3C#N)c2cc1C
-1.9% | O=C(CN1CCOc2ccccc21)NCc1ccccc1
-0.4% | CC(C)(C)c1ccc(C(=O)NCc2ccc(Cl)cc2)cc1

# Remaining list, next part:
VDR inhibitor | mol
0.4% | Cc1ccccc1NC(=O)OCc1ccccc1
-0.4% | Cc1ccc(NC(=O)N2CCCC(C(=O)O)C2)cc1 (stereo not given)
3.2% | Cc1ccc(CNC(=O)CCC2CCCN(Cc3cc4ccccc4o3)C2)o1 (stereo not given)
7.3% | CCOc1ccc(CCNC(=O)Cn2c(=O)c3cccn3c3cccnc32)cc1
-3.7% | CN(C)c1ccc(CN2CCCCCC2)cc1
-3.4% | CC(C)CC(NC(=O)C1CCC(C)CC1)C(=O)Nc1ccccn1 (stereo not given)
-7.3% | O=c1[nH]c(SCc2ccccc2)nc2ccsc12
-4.1% | O=C(CCc1nc2ccccc2c(=O)[nH]1)NCCN1C(=O)S/C(=C\c2ccc(OC(F)F)cc2)C1=O
5.1% | CCC[C@@H](CN[C@@H](CNC)[C@H](C)CC)NCC1CCC(C(C)(C)C)CC1 (stereo not given in full)
-28.5% | CC1(C)Cc2c(sc3nc(SCC(=O)O)nc(N)c23)CO1

# Other compounds:
VDR inhibitor | mol
-2.5% | O=C1CCc2cc(S(=O)(=O)NC(Cc3ccccc3)C(=O)NC3CCCC3)ccc2N1 (stereo not given)
0.8% | Cc1cc(C)n(CCc2nc3c4ccccc4nc(SCc4ccc(F)cc4)n3n2)n1
5.4% | C=CCSc1nnc(-c2cc(C(C)(C)C)nn2Cc2ccc(F)cc2)n1C
12.6% | COc1ccc(OC)c(NC(=O)C2CCCN(S(=O)(=O)c3ccc(-n4cnnn4)cc3)C2)c1 (stereo not given)
1.3% | CSc1ncccc1C(=O)OCC(=O)NC(C)C
-21.5% | COCCN(C(=O)c1snc(C(N)=O)c1N)C(C(=O)NC1CCCCC1)c1cc(OC)c(OC)c(OC)c1 (stereo not given)
8.3% | COc1ccc(-c2nnn(CCc3nn[nH]n3)n2)cc1OC
8.7% | S=c1[nH]nc(-c2ccc(Cl)cc2Cl)n1-c1ccc(Cl)cc1
-21.3% | C=C(C)Cn1c(N2CC(C)CC(C)C2)nc2c1c(=O)[nH]c(=O)n2C (stereo not given)
-1.1% | CC(C)(C)c1ccc(C(=O)NCC(=O)O)cc1

# Further entries
VDR inhibitor | mol
3.2% | NNC(=O)C1CCN(S(=O)(=O)c2ccc(Cl)cc2)CC1
-0.8% | NS(=O)(=O)c1ccc(NC(=O)NC2CCCCC2)cc1
-29.5% | COc1cc2c(C#N)c(N3CCc4ccccc4C3)nc(N)c2c(N)n1
u | O=C(CNC(=O)c1sc2ccccc2c1Cl)Nc1ccccc1F
2.8% | COc1ccc(CCNC(=O)C2CCN(c3ncnc4c3nc3n4CCCCC3)CC2)c(OC)c1
17.7% | CCOC(=O)c1c(NC(=O)CSc2nc3nc(C)cc(C)n3n2)sc(CC)c1C
-2.5% | CCOC(=O)C1(CC2CCCCO2)CCN(Cc2cccnc2)CC1 (stereo not given)
-3.7% | CN=C(N)NCCCC(N)C(=O)O (stereo not given)
21.4% | COc1cc(C(=O)N2CCCc3ccccc32)cc(OC)c1OC
-11.7% | C#CCNC(=O)C1=C[C@H](c2coc3ccccc3c2=O)C[C@H](OCc2ccc(CO)cc2)O1

# (listing goes on)
VDR inhibitor | mol
24.1% | COc1ccc(CNC(=O)CN(C(=O)c2csnn2)c2ccc(F)cc2)cc1
-3.8% | CCOC(=O)C1(Cc2cccc(OC)c2)CCN(C2CCOCC2)CC1
-19.4% | COc1ccc(CCNC(=O)C23CN(Cc4ccccc4)CC2C(c2cccc([N+](=O)[O-])c2)=NO3)cc1 (stereo not given)
-18.1% | Cc1onc(-c2c(Cl)cccc2Cl)c1C(=O)Nc1c(C)n(C)n(-c2ccccc2)c1=O
-2.2%&4.1% | C[N+]1(CCCCC[N+]2(C)CCCC2)CCCC1
5.8% | CCc1ccc(CNC(=O)c2cc3ccccn3n2)cc1
0.5% | Cc1cc(=O)oc2cc(NC(=O)COc3ccccc3[N+](=O)[O-])ccc12
5.4% | Cc1ccc(S(=O)(=O)N2CCN(C(=O)COC(=O)CNC(=O)c3ccc(Cl)cc3Cl)CC2)cc1
2.0% | CCOc1ccccc1CNC(=O)CNC(=O)c1cccs1
-7.5% | CC1=Nn2c(nnc2-c2ccccc2Cl)SC1

# Next part
VDR inhibitor | mol
31.1%[activator] | Cn1c(O)c(N=NC(=N)N)c2ccccc21
0.0% | CS(=O)(=O)N(Cc1ccccc1)c1ccc(C(=O)Nc2ccccc2C(=O)O)cc1
-0.8% | COCCN(C(=O)Cn1nnc2ccccc21)C(C(=O)NC1CCCC1)c1ccc(OC)cc1OC (stereo not given)
-0.3% | O=C(C[n+]1cc(-c2ccccc2)n2c1CCC2)N1c2ccccc2Sc2ccccc21
5.9% | CCOC(=O)c1ccc(NC(=O)CN2C(=O)CSC(C)C2=O)cc1 (stereo not given)
-5.2% | C(=C\c1nc(-c2ccccc2)no1)/c1ccccc1
-9.8% | CCOCCCNC(=O)c1cc2c(=O)n(C)c3ccccc3c2n1C
-1.8% | O=C(CCc1ccc(S(=O)(=O)NC2CCCCC2)cc1)NCc1cccnc1
-6.2% | O=C(CSc1nc2ccccc2nc1Cc1ccccc1)Nc1ccccc1C(F)(F)F
-18.6% | Cc1ccc(CN(Cc2cccnc2)C(=S)Nc2cc(Cl)ccc2C)cc1

# New compounds follow:
VDR inhibitor | mol
1.5% | O=C(O)C(CCCCN1C(=O)C2C3C=CC(C3)C2C1=O)N1C(=O)C2C3C=CC(C3)C2C1=O (stereo not given)
-3.0% | O=C(c1ccccc1)c1c[nH]c(C(=O)NNc2ccccc2)c1
13.6% | O=C(O)C(Cc1ccccc1N(CCO)CCO)N1C(=O)c2ccccc2C1=O (stereo not given)
11.6% | COc1ccc(C(=O)NC2CCN(CC(=O)Nc3cccc(C)c3)CC2)cc1OC
-26.4% | COc1ccc(-c2cc(-c3n[nH]c(=S)n3-c3ccccc3OC)[nH]n2)cc1
-7.1% | O=C1COc2ccc(C(=O)CSc3nnc(-c4cccs4)n3Cc3ccccc3)cc2N1
-15.0% | COc1ccc(CNC(=O)C2=CC(c3ccc(OC)cc3)=NS(=O)(=O)N2C)cc1
12.7% | COC(=O)c1cc2c(C)c(C)c3ccccn3c-2c1C(=O)OC
-17.3% | COc1ccc(/C=C2\SC(=O)N(CC(=O)NNC(=O)c3ccccc3O)C2=O)cc1OC
-13.8% | CCOc1ccc(C2C(C(=O)c3cccs3)=C(O)C(=O)N2CCN2CCOCC2)cc1 (stereo not given)

# Continued:
VDR inhibitor | mol
-13.5% | Oc1ccc(C2C[C@H]3CC[C@@H]2C3)cc1O (stereo not given in full)
13.3% | COc1ccc(/C=N\NC(=O)C2CCCC2)cc1Br
7.2% | O=C(C1Cc2ccccc2CN1S(=O)(=O)c1cccs1)N1CCCCC1 (stereo not given)
-6.6% | COc1ccccc1NC(=O)c1nnn(-c2ccc(F)cc2)c1C
1.8% | COc1cc2c(cc1OC)CN(CC(=O)Nc1ccccc1C(=O)NCc1ccccc1)CC2
3.5% | Cc1cc(C(=O)N/N=C/c2ccc3c(c2)OCO3)c(C)n1-c1ccc(F)cc1
-0.2% | Cc1ccc(CNC(=O)c2c(O)nc3c(C)cccn3c2=O)cc1
6.5% | COc1cc(OC)cc(-n2nc(C(=O)N3CC(C)CC(C)C3)c3ccccc3c2=O)c1 (stereo not given)
0.3% | CC(C)n1nc(CC(=O)O)c2ccccc2c1=O
-22.0% | O=C(Cc1cccs1)N/N=C/C=C\c1ccccc1[N+](=O)[O-]

# Later entries
VDR inhibitor | mol
-8.0% | Cc1noc(C)c1COC(=O)c1cc(S(=O)(=O)N2CCOCC2)ccc1F
-7.4% | O=C(CSc1ccc2ccccc2c1)NCCc1ccc(O)c(O)c1
5.8% | COc1ccccc1C(=O)Nc1ccc(NC(=O)c2ccco2)c(C)c1
3.7% | COC(=O)c1cc2ccsc2n1Cc1nc(-c2ccc(Cl)cc2)oc1C
-21.5% | Cc1ccc(S(=O)(=O)CCC(=O)OCc2ccc(Cl)c(Cl)c2)cc1
-24.0% | NS(=O)(=O)c1ccc(NC(=S)NC(=O)c2cccs2)cc1
-2.7% | Cc1ccc(C(C)NC(=S)NCc2ccc(F)cc2)c(C)c1 (stereo not given)
2.7% | CCc1ccc(S(=O)(=O)NC(CC(=O)O)c2ccccc2)cc1 (stereo not given)
-14.8% | Nc1nc2c([N+](=O)[O-])cccc2s1
-12.6% | C=CCOc1cccc(C(=O)N2CCCC(Nc3ccc(F)cc3)C2)c1 (stereo not given)

# Following part
VDR inhibitor | mol
-4.8% | CC(C)(C)OC(=O)N(CCc1ccccc1)Cc1cccc(OCc2cccc(NC(=O)C3CC3)c2)c1
7.8% | Cc1cccc[n+]1CC(=O)c1ccccc1
1.6% | CCCNC(=O)c1c(N)n(-c2ccc3c(c2)OCO3)c2nc3ccccc3nc12
-8.0% | O=C(Nc1ccccc1)NN(C(=O)CCl)c1ccccc1
-1.6% | O=C(Nc1ccc(N2CCOCC2)c(Cl)c1)c1cc(F)c(F)cc1Cl
1.0% | Cc1ccc(CNc2ccc3c(c2)ncn3C(C)C)cc1
6.6% | COCCOC(=O)c1c(C)oc2c1cc(NS(=O)(=O)c1ccc(Cl)c(C)c1)c1ccccc12
6.9% | O=C(COC(=O)/C=C/c1ccccc1)NCc1ccccc1Cl

# This is a subset. The share of hits here may be higher or lower than overall.
